Cruzain inh noDet – blocks cruzain activity in detergent-free assay. P25779. purified cruzain, Z-FR-AMC fluorescence, no detergent. Potency, µM, for inactives: max response, negative = inhibition, most hits filed as inhibitors. hit rate 2.3% among 200,000;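 further: plate controls were enzyme without inhibitor for no effect and buffer without enzyme for full effect; nearly all actives have a fitted effect of over 40% in size; top concentration of the series not given in the record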
Target sequence (P25779 123-467 limits assumed): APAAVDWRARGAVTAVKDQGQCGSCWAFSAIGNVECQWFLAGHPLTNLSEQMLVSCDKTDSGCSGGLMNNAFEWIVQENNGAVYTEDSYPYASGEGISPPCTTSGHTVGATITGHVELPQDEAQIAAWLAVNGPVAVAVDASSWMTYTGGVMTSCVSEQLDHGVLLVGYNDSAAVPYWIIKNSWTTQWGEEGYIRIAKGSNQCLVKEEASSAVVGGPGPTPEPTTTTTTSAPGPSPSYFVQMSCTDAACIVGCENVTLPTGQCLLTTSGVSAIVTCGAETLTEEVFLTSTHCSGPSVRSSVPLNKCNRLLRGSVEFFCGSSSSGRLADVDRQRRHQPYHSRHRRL
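Detergent-free condition (0.00005% Triton X-100) in acetate buffer pH 5.5 with DTT. 1.5 nM enzyme and compound were pre-mixed 15 min, then 2 uM Z-FR-AMC substrate added; reaction progress from fluorescence change between first and third reads (60 s).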
MARV entry inh – Marburg virus entry inhibition; Marburg virus pseudotyped entry inhibition, cell reporter; control for the full effect not named in the record; about a third of the inactives were read at about 46 µM; Potency, µM (highest dose often 37.8 µM), inactives show at the highest dose activity change, negative = inhibition, most hits filed as inhibitors; hit rate 1.8% among 300,000; active = well fitted inhibition curve with a large enough effect; inconclusive = small, poorly fitted or top-dose-only effect, or effect the other way; inactive = flat fitted curve, though single readings scatter; tested in HEK293 cells; about a fifth of its hits are not listed in these tables; further: on the % scale 0 is the no-effect control and ±100 the full control effect; luciferase read-out
SARS PLpro yeast – inhibitors of SARS-CoV papain-like protease in yeast | S. cerevisiae expressing SARS-CoV PLpro, growth rescue; control for the full effect not named in the record | Potency, µM (series often up to 32.9 µM), without a hit: at the highest dose activity, positive = growth rescue | hit rate 0.19% among 330,000 | AID 485353; active means well fitted rising curve with a large enough effect; inconclusive means small, poorly fitted or top-dose-only effect; inactive means no such curve, though single readings can be large or run the other way; further: 0% is about no effect; nearly all actives have a fitted effect of over 55% in size; growth read by luminescence after 48 h
LASV entry inh – Lassa virus entry inhibition. Lassa virus pseudotype entry inhibition, cell reporter; control for the full effect not named in the record. Potency, µM (series often up to 37.9 µM), for the others: top-dose activity change, negative = inhibition, most hits filed as inhibitors. hit rate 1.2% among 300,000; active means well fitted inhibition curve with a large enough effect; inconclusive means small, poorly fitted or top-dose-only effect, or effect the other way; inactive means flat fitted curve, though single readings scatter; tested in HEK293 cells; further: on the % scale 0 is the no-effect control and ±100 the full control effect; nearly all actives have a fitted effect of over 50% in size; luciferase read-out
RE007 growth inh – less growth of the S. pombe RE007 Vpr strain. S. pombe RE007 Vpr strain, BacTiter-Glo ATP luminescence, 24 h; control for the full effect not named in the record. Potency, µM (titrated, usually from 92.2 µM), for inactives: at the top dose activity change, negative = less growth. hit rate 0.21% among 360,000. AID 651644; active = well fitted falling curve with a large enough effect; inconclusive = small, poorly fitted or top-dose-only effect; inactive = no such curve, though single readings can be large or run the other way;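 further: on the % scale 0 is the no-effect control and ±100 the full control effect; nearly all actives have a fitted effect of over 50% in size; the assay follows cell death caused by Vpr and the record does not say whether a fall means rescue or toxicity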
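Fission yeast strain RE007, carrying one chromosomally integrated HIV-1 vpr copy, was seeded at OD 0.01 in PMG+AL medium with 23 nL pinned compound. After 24 h at 30 °C and 99% humidity, viability was read by BacTiter-Glo luminescence.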
2A StopGo – lowers the luciferase signal of an FMDV 2A StopGo reporter. hit rate 1.2% among 410,000. AID 1159524. Potency, µM (top dose mostly 57.9 µM), without a hit: at the highest dose signal change, negative = less light. human cells with a luciferase reporter of 2A StopGo recoding; control for the full effect not named in the record; active = well fitted falling curve with a large enough effect; inconclusive = small, poorly fitted or top-dose-only effect; inactive = no such curve, though single readings can be large or run the other way; tested in HEK293T cells; further: on the % scale 0 is the no-effect control and ±100 the full control effect; nearly all actives have a fitted effect of over 45% in size; luciferase light after 4 h
Cruzain inh Det – cruzain (T. cruzi) inhibition with detergent; P25779; purified cruzain, Z-FR-AMC fluorescence, 0.01% Triton; Potency, µM, inactives show max response, negative = inhibition, usual class: inhibitors; hit rate 0.43% among 200,000;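 further: plate controls were neutral wells for no effect and buffer without enzyme for full effect; nearly all actives have a fitted effect of over 40% in size; top concentration of the series not given in the record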
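Z-FR-AMC hydrolysis (2 uM substrate) by cruzain (1.5 nM) monitored kinetically at ex 360/em 450 nm after 15 min room-temperature compound exposure; 0.01% Triton X-100, pH 5.5, 5 mM DTT.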
NS1 function inh – inhibitors of influenza NS1 protein function. hit rate 0.4% among 270,000. Potency, µM (highest dose often 46.1 µM), for inactives: top-dose activity, positive = more growth. AID 2326. S. cerevisiae slowed by influenza A NS1, growth recovery by OD600; active means well fitted rising curve with a large enough effect; inconclusive means small, poorly fitted or top-dose-only effect; inactive means no such curve, though single readings can be large or run the other way; further: nearly all actives have a fitted effect of over 50% in size
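Recovery from NS1-induced slow growth read by OD600 in budding yeast switched to galactose assay medium (pH 6.0, -URA) at 1:100 dilution. Compound 23 nl per well; the matching strain lacking NS1 serves as control.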
Active calls of the source: *; u = inconclusive; x = no result given; & = joins results of further samples; [ ] = dose if it differs, or a comment. Unless noted, the call rests on the fitted dose curve; in most records, active means well fitted curve in the direction sought with a large enough effect; inconclusive means small, poorly fitted or top-dose-only effect, or another doubt; inactive means no such curve, though single readings can be large; an effect the other way counts as inactive or inconclusive. Potency means the concentration at half of the fitted maximal effect.

SMILES	Cruzain inh noDet	MARV entry inh	SARS PLpro yeast	LASV entry inh	RE007 growth inh	2A StopGo	Cruzain inh Det	NS1 function inh
CCOC(=O)C(NC(=O)CCC(=O)Nc1ccc(S(N)(=O)=O)cc1)C(O)c1ccccc1 (stereo not drawn)	9%	24%	2%	20%	-1%	4%	0.5%	u
COc1cc(Cl)cc(C(=O)O)c1OCC(=O)O	x	7%[46.1 µM]	-2%	3%[46.1 µM]	-6%	26%	x	1%
CC(C)C(C(=O)NCc1ccco1)N(C(=O)CNS(=O)(=O)c1ccccc1)c1ccccc1 (stereo not drawn)	x	x	-1%	u	-14%	-17%	x	-3%
COc1ccc2ccccc2c1-c1c(OC)ccc2ccccc12	21%&-1%	6%&6%&-12%&6%[14.2 µM]	x	u	x	x	-2.3%&1.6%	x
Cc1cc(S(=O)(=O)N2CCCC2)ccc1OCC(=O)N1CCOCC1	-14%	5%	1%	-2%	-14%	-5%	8.9%	-1%
Cc1c(O)c(CN2CCCCC2)cc2c3c(c(=O)oc12)CCC3	u	4%	9%	13%	3%	10%	-29%	8%
COc1ccc(NC(=O)c2nc[nH]c2C(=O)N(C)Cc2ccccc2)cc1	x	x	2%	x	-10%	0%	x	-3%
COc1cccc(/C=C/C(=O)NNC(=O)c2ccncc2)c1	x	1%	4%	-13%	0%	-16%	x	x
CN(C(=O)c1cc2c(=O)oc3ccccc3c2s1)c1ccc(F)cc1	-7%	-12%[46.1 µM]	x	2%[46.1 µM]	x	-12%	1.2%	x
CCOC(=O)C1=C(C)N=C2SCCC(=O)N2C1c1ccc(OCc2ccccc2)cc1 (stereo not drawn)	8%	12%[46.1 µM]	x	u	x	-18%	-0.5%	x
N/C(=N\N=C/c1ccc(F)cc1)N/N=C\c1ccc(F)cc1	x	x	3%	x	5%	-2%	x	-167%
COc1ccc(C2NC(C(=O)O)Cc3c2[nH]c2ccccc32)cc1CN1CCN(c2ccc(F)cc2)CC1 (stereo not drawn)	x	-2%	0%	x	-8%	-22%	x	0%
CCN(CC(=O)Nc1ccc2c(c1)OCCO2)C(=O)c1ccc(C)c(S(=O)(=O)N2CCOCC2)c1	x	u	x	1%	18%	8%	x	x
C#CCOc1ccccc1CNc1ccccc1	-2%	5%	-2%	-8%	10%	-11%	-2.8%	-7%
COCC(C)NC(=O)c1ccc2c(c1)S(=O)(=O)c1ccccc1C2=O (stereo not drawn)	x	x	6%	x	9%	-21%	x	1%
Cc1ccc(C)c(N2CCN(C(=O)Cn3c(=O)oc4cc(S(=O)(=O)N5CCCC5)ccc43)CC2)c1	x	x	-7%	x	0%	0%	x	-7%
CC(=O)N1CCOc2ccc(S(=O)(=O)N(C)c3cccc(C)c3)cc21	x	x	3%	x	13%	-21%	x	7%
O=[N+]([O-])c1ccc(N2CCN(c3ccc(F)cc3)CC2)cn1	x	-27%[46.1 µM]	0%	-12%[46.1 µM]	9%	-8%	x	2%
Cc1nn2c(COc3ccc(NC(=O)c4ccccc4)cc3)nnc2c2ccccc12	12%	25%	15%	5%	-8%	20%	-1.7%	-25%
Cc1ccc(C(=O)OCC(=O)Nc2ccccc2Cl)c(O)c1	x	x	0%	x	22%	19%	x	1%
CCOc1ccc(/C=N/Nc2cc(N3CCOCC3)nc(C)n2)c(O)c1	x	x	-2%	x	0%	u	x	-4%
COc1ccc(Cc2noc(CN3CCCN(Cc4ccc(F)cc4)CC3)n2)cc1OC	x	-3%[46.1 µM]	0%	-18%[46.1 µM]	2%	-14%	x	-1%
CCCNC(=O)C/C(C)=N/NC(=O)C(=O)Nc1ccccn1	x	x	0%	x	-14%	31%[activator]	x	0%
COc1ccccc1CNC(=O)C(=O)NCC1OCCN1S(=O)(=O)c1ccccc1 (stereo not drawn)	x	u	u	5%	-20%	-14%	x	-2%
Cn1ccnc1P(=S)(c1nccn1C)c1nccn1C	0%	u	9%	0%	9%	x	1.7%	-1%
COc1ccccc1NC(=O)COC(=O)c1ccc([N+](=O)[O-])s1	x	u	-29%	u	u	-10%	x	x
COc1ccc(C2NC(=O)CCC2[N+](=O)[O-])c(OC)c1 (stereo not drawn)	x	x	5%	x	4%	5%	x	-1%
Cc1ccc(NC(=O)c2cc(=O)[nH]c3ccc(S(=O)(=O)N4CCOCC4)cc23)nc1	x	-1%	-4%	20%	1%	-21%	x	x
CCOC(=O)c1c(C)[nH]c(CCC(=O)NCc2ccccc2Cl)c1C	5%	x	x	1%[46.1 µM]	x	12%	-0.4%	x
O=C(CCC1CCCCC1)NCCS(=O)(=O)N1CCN(c2ccccc2)CC1	x	3%	-4%	2%	2%	1%	x	x

Record cards (already shown).
CCOc1ccc(/C=N/Nc2cc(N3CCOCC3)nc(C)n2)c(O)c1 is entered as Cruzain inh noDet: x; MARV entry inh: x; SARS PLpro yeast: -2%; LASV entry inh: x; RE007 growth inh: 0%; 2A StopGo: u; Cruzain inh Det: x; NS1 function inh: -4%
Cn1ccnc1P(=S)(c1nccn1C)c1nccn1C is entered as Cruzain inh noDet: 0%; MARV entry inh: u; SARS PLpro yeast: 9%; LASV entry inh: 0%; RE007 growth inh: 9%; 2A StopGo: x; Cruzain inh Det: 1.7%; NS1 function inh: -1%

Other results.
SMILES	Cruzain inh noDet	MARV entry inh	SARS PLpro yeast	LASV entry inh	RE007 growth inh	2A StopGo	Cruzain inh Det	NS1 function inh
O=C(CN1CCCN(Cc2ccc(F)cc2)S1(=O)=O)NCc1ccccc1Cl	8%	x	x	u	x	-13%	-11%	x
CCc1cc2c3c(c1)C1(C(=O)N3C(C)(C)C=C2C)C(C#N)=C(N)Oc2[nH]c(=O)[nH]c(=O)c21 (stereo not drawn)	x	u	-8%	u	u	-30%	x	x
O=C(c1ccccc1Cl)n1nc(-c2ccco2)nc1NCc1cccs1	5%	11%[46.1 µM]	x	16%[46.1 µM]	x	22%	-3.1%	x
O=C(/C=C/c1ccc(Cl)cc1Cl)c1cccnc1	u	u	11%	-2%	u	-14%	-2.4%	-125%
Cc1cnc(NC(=O)c2ccccn2)s1	x	-11%[46.1 µM]	-3%	x	u	u	x	-2%
N[C@@H](Cc1ccccc1)c1nnc(SCc2ccccc2Cl)o1	18%	-16%	-1%	19%	-8%	1%	4.0%	-33%
CCCCn1c(O)c(C(C)=NC(Cc2c[nH]c3ccccc23)C(=O)OC)c(=O)[nH]c1=O (stereo not drawn)	16%	0%&0%	-3%	u	1%	u	-3.9%	-33%
O=C(NNC(=O)c1cccs1)c1ccc(S(=O)(=O)N2CCCCC2)cc1	-8%	-9%	2%	8%	3%	-7%	-2.0%	-1%
O=C(OCc1nc2ccccc2c(=O)[nH]1)c1cccs1	-7%	8%	-2%	10%	13%	36%[activator]	-1.4%	-51%
CCN1CCN(C(=O)c2cnn(-c3cccc(Cl)c3)c2C2CCN(C(=O)OC(C)(C)C)CC2)CC1	-12%	x	x	7.1µM*	x	-13%	-1.6%	x

Continued; it opens with the 2 that closed the last part.
SMILES	Cruzain inh noDet	MARV entry inh	SARS PLpro yeast	LASV entry inh	RE007 growth inh	2A StopGo	Cruzain inh Det	NS1 function inh
O=C(OCc1nc2ccccc2c(=O)[nH]1)c1cccs1	-7%	8%	-2%	10%	13%	36%[activator]	-1.4%	-51%
CCN1CCN(C(=O)c2cnn(-c3cccc(Cl)c3)c2C2CCN(C(=O)OC(C)(C)C)CC2)CC1	-12%	x	x	7.1µM*	x	-13%	-1.6%	x
Cc1ccc(S(=O)(=O)n2nc(C)cc2N)cc1	x	-13%[46.1 µM]	1%	1%	2%	-3%	x	22µM*
O=C(O)COc1ccccc1/C=N/NC(=O)c1cccc(S(=O)(=O)N2CCOCC2)c1	x	20%[46.1 µM]	0%	6%	-2%	-6%	x	x
Cc1cc([N+](=O)[O-])nn1CCCC(=O)Nc1cccc(Cl)c1Cl	x	0%[46.1 µM]	-7%	-14%[46.1 µM]	9%	-9%	x	x
O=C(Cc1cccs1)N(Cc1ccco1)C1(C(=O)NC2CCCCC2)CCCCC1	-7%	u	2%	-2%	3%	-20%	1.5%	-1%
O=S(=O)(Cc1ccccc1)Nc1ccccc1	x	x	3%	x	6%	7%	x	10%
Cc1ccc(C(=O)N/C(=C\c2cccc([N+](=O)[O-])c2)C(=O)NCc2ccncc2)cc1	-7%	24%	4%	18%	3%	-6%	-2.2%	-10%
COc1cccc(/C=C(\C#N)c2nc3ccccc3[nH]2)c1OCC(=O)O	x	x	4%	x	2%	0%	x	14%
CC(=O)Nc1ccc(C(=O)NNC(=O)Cc2ccccc2)cc1	x	17%	-1%	27%[46.1 µM]	19%	-10%	x	-4%
CN=C1S/C(=C\c2ccc(O)c(Br)c2)C(=O)N1C	x	x	-1%	x	-4%	3%	x	-10%
COc1ccc(OCCC(=O)Nc2ccc(S(N)(=O)=O)cc2)cc1	x	-8%[46.1 µM]	-4%	-1%	8%	14%	x	-8%
CN(C(=O)COC(=O)C1CCN(S(=O)(=O)c2ccc3c(c2)OCCO3)CC1)C1CCS(=O)(=O)C1 (stereo not drawn)	x	-3%	-2%	6%	7%	-3%	x	x
CCCNC(=O)CS(=O)Cc1nc(-c2ccccc2C)oc1C (stereo not drawn)	-3%	x	1%	x	-17%	0%	-3.3%	-1%
CC(C)CCN1C(=O)c2ccc(C(=O)Nc3cc(C(=O)O)cc(C(=O)O)c3)cc2C1=O	x	-1%	6%	-2%	1%	1%	x	u
CS(=O)(=O)N1CCc2cc(C(=O)Nc3ccc(O)cc3)ccc21	x	u	-3%	0%	6%	10%	x	-7%
CCOC(=O)c1c(-c2ccccc2)csc1NC(=O)CSc1nncs1	2%	u	-37%	u	2%	u	-5.8%	0%
CCSc1nc2c(c(=O)[nH]1)C(c1cccnc1)C(C(=O)OC)=C(C)N2 (stereo not drawn)	-6%	-1%	2%	1%	14%	-7%	-2.2%	4%
Cn1c(=O)[nH]c(NCCc2ccc(O)cc2)c([N+](=O)[O-])c1=O	x	22%	x	1%	-7%	-9%	x	x
O=C(Cn1nnc(-c2ccc(F)cc2)n1)OCC(=O)c1ccccc1	x	21%[46.1 µM]	0%	1%[46.1 µM]	6%	3%	x	x
COc1cccc(CNC(=O)CCn2c(=O)c3cccn3c3cccnc32)c1OC	6%	x	x	5%[46.1 µM]	x	-4%	-3.1%	x
